HNF4A DNA FP: change in binding of human HNF4 alpha to DNA | P41235 | HNF4a-FITC DNA binding, fluorescence polarization, 1 h | activity change, % at 10 µM | 0.3% of 360,000 active; in the data active means activity change above about 30%, passing the limit was not always enough;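 further: controls were the assay level and a saturating level of protein; the project sought stronger binding though the title names inhibitors; some compounds called inactive have numbers as strong as hits; positive values seem to mean higher polarization but the record does not say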
LANA-H2A inh: blocks KSHV LANA binding to histone H2A/H2B. Q9QR71. cell-free LANA-H2A/H2B peptide, fluorescence polarization. inhibition, % (no concentration beside the values). 0.6% of 320,000 active; in the data active means inhibition mostly above about 10%, no sharp cut-off; inactive means mostly below about 6.7%;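 further: stock transfer was 7.5 nL into about 10 µL; 0% = median of vehicle wells and 100% = median of positive control wells; one replicate is shown; the record names a cut of 25% in any replicate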
Target sequence (Q9QR71 whole entry, looked up): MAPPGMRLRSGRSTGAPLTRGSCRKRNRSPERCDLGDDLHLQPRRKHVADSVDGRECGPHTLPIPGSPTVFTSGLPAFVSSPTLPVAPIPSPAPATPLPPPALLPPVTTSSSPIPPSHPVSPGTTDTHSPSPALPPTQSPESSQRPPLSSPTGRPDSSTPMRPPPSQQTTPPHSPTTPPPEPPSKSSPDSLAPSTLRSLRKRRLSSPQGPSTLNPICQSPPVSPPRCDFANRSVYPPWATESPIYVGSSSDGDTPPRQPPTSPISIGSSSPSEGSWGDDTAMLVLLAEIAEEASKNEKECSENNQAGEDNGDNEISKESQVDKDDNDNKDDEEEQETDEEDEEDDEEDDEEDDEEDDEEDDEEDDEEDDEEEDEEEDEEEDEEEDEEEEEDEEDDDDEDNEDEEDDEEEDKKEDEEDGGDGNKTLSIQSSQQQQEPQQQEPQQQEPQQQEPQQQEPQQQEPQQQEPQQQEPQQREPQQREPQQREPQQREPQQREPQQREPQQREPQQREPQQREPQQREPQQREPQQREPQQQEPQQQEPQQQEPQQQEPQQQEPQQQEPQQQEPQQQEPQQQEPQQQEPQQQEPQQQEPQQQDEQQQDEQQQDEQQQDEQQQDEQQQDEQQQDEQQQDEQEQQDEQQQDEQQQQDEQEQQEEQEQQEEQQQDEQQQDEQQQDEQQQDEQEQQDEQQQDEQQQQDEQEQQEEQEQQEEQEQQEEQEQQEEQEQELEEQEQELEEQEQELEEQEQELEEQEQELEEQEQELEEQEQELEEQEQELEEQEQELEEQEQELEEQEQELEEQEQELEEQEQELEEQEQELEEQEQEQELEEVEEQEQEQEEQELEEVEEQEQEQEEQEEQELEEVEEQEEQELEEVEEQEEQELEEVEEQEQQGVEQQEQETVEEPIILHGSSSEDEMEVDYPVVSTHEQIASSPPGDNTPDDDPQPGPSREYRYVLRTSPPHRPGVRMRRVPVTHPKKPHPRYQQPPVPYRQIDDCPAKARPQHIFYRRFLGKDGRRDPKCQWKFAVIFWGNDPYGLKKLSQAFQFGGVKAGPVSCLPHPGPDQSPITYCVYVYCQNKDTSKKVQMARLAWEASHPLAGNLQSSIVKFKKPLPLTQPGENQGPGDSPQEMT
A1 inh: inhibitors of the anti-apoptotic protein A1, read as caspase activation. MEF A1-2A-BIM cells, Caspase-Glo 3/7 luminescence, 3 h; percent of clofoctol response, vehicle zero. caspase activation, % (test concentration not listed). 0.066% of 330,000 active. AID 2462;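 active means over half of replicate activation scores above 10%, or exactly half above 10 with the replicate mean above 10; inconclusive means replicate mean below 10 yet half the replicates above 10; inactive means over half of replicates below 10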;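 further: wells of about 30 µL received 50 nL stock; many hits fall short of the cut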
UCH37 inh: human UCH37 deubiquitinating enzyme inhibition; 0.33% of 330,000 active; inhibition, % (concentration not given with the values); Q9Y5K5; purified proteasome/UCH37, Ub-AMC cleavage fluorescence;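 active means mean of two replicates above 20%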;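 further: 0% = compound-free wells with enzyme and 100% = wells lacking proteasome; stock transfer was 100 nL into about 20 µL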
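assay system = human UCH37 enzyme supplied as purified proteasome complex | amount = proteasome at 0.15 nM in the dispensed enzyme solution | schedule = 30 min compound-proteasome preincubation then 25 min substrate reaction, room temperature | measured by = fluorescence, ex 355 nm, em 460 nm | benchmarks = no-proteasome wells (full inhibition) and compound-free wells (no inhibition)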
Ecoli growth: blocks Escherichia coli growth; OD600, 23 h; hits give low values; OD600 absorbance (no concentration beside the values); 0.21% of 330,000 active;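 active means OD600 absorbance below the run mean of sample wells minus 3.6 SD, in any replicate, cut at about 0.56 in these data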;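 further: stock transfer was 300 nL into about 60 µL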
B2AR ag: human beta-2 adrenergic receptor agonism by FAP; P07550; Am2.2-beta2AR cells, FAP receptor internalization, flow cytometry; reference of the scale not given here; response, % (test concentration not listed); 0.43% of 340,000 active; AID 504454;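 active means response above a set limit, near 3 SD of response in nonfluorescent compounds, cut at about 42% in these data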;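 further: stock transfer was 100 nL into about 11 µL; a reference agonist was the positive control; negative values mostly stem from fluorescent compounds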
Vif A3G: inhibitors of Vif binding to APOBEC3G peptide, primary screen, biochemical, TR-FRET, GST-Vif 1-94, biotin-A3G peptide, dose response retest (AID 1117319); TR-FRET GST-Vif / biotin-A3G peptide binding; higher % means a stronger effect; test concentration not given here; strong numbers were not always called active; one-dose inhibition, %; IC50 in µM for titrated hits; 0.57% of 260,000 active;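 active means above the screen mean plus three standard deviations and confirmed in dose response; inconclusive means results disagree or hit not tested in dose response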;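 further: Vif residues 1-94 fused to GST binding biotinylated APOBEC3G peptide 110-148; 0% = full assay without inhibitor and 100% = GST in place of GST-Vif; retest series ran down from 100 µM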
* = called active by the depositor. A portion of the library, so the mix of outcomes need not match the whole.

Screening O=c1[nH]c(=O)n(Cc2ccc(F)cc2)c(O)c1C=NCc1cccnc1 returned HNF4A DNA FP 4.5, LANA-H2A inh 2.0, A1 inh 0.8, UCH37 inh 3.0, Ecoli growth 0.652, B2AR ag -10.5 and Vif A3G 5.2%.
`Cc1ccc(N2C(=O)NC(=O)/C(=C\c3ccsc3)C2=O)cc1C` gave LANA-H2A inh -2.3, A1 inh 0.7, UCH37 inh 0.8, Ecoli growth 0.683 and Vif A3G inconclusive.
Screening Cc1cc(C)n(CCOC(=O)C2C(C=C(Cl)Cl)C2(C)C)n1 (centres undefined) returned HNF4A DNA FP 1.0, LANA-H2A inh -2.1, A1 inh 0.2, UCH37 inh 6.5, Ecoli growth 0.746, B2AR ag 5.2 and Vif A3G 0.5%.
`Cc1ccc(CS(=O)(=O)CCC(=O)N2CCC3(CC2)OCCO3)cc1` gave HNF4A DNA FP -3.2, LANA-H2A inh 1.8, A1 inh -0.1, UCH37 inh 2.1, Ecoli growth 0.665, B2AR ag 5.7 and Vif A3G -1.4%.
For Cc1ccc(CC2C(=O)N(C)C(=O)N(C)C2=O)s1 the results were HNF4A DNA FP 1.1, LANA-H2A inh -6.4, A1 inh 0.0, UCH37 inh 1.0, Ecoli growth 0.711, B2AR ag 3.1 and Vif A3G 16.7%.
CSCc1nnc2n1-c1ccc(Cl)cc1C(c1ccccc1)=NC2 was read as HNF4A DNA FP -1.8, LANA-H2A inh 0.3, A1 inh 0.9 and B2AR ag -7.3.
`Cc1cccc(-n2c(/C=C/c3ccc([N+](=O)[O-])o3)nc3ccccc3c2=O)c1` gave HNF4A DNA FP 150.5, A1 inh -0.3, UCH37 inh 2.1, Ecoli growth 0.653 and B2AR ag -120.9.
`CCCC1CCCCC12C(=O)NC(=O)NC2=O` (centres undefined) gave HNF4A DNA FP 1.5, B2AR ag -2.0 and Vif A3G -10.0%.
Screening Cc1cccc(OP(N)(=O)Oc2cccc(C)c2)c1 returned HNF4A DNA FP -1.3, LANA-H2A inh -1.4, A1 inh 1.2, UCH37 inh 0.8, Ecoli growth 0.651, B2AR ag 4.6 and Vif A3G -10.1%.
Screening O=C(c1ccc(C(F)(F)F)cc1)C1CCCN(Cc2ccc(CO)o2)C1 (centres undefined) returned HNF4A DNA FP -4.0, LANA-H2A inh -3.1, A1 inh 1.2, UCH37 inh 1.7, Ecoli growth 0.661, B2AR ag 5.0 and Vif A3G 4.2%.
Screening CCCN(CC1CC1)CC(O)c1ccccc1 (centres undefined) returned HNF4A DNA FP 1.9, LANA-H2A inh 1.5, A1 inh 0.9, UCH37 inh 5.7, Ecoli growth 0.67, B2AR ag -0.1 and Vif A3G -10.8%.
For COc1ccc(N2C(=O)CC(N3CCC(n4c(=O)[nH]c5ccccc54)CC3)C2=O)cc1 (centres undefined) the results were HNF4A DNA FP 2.5, LANA-H2A inh -0.4, A1 inh 0.9, UCH37 inh 3.8, Ecoli growth 0.716, B2AR ag 8.3 and Vif A3G 4.7%.
Screening CCOC(=O)C1=C(N)OC(C)=C(C(=O)OCCOC)C12C(=O)Nc1ccccc12 (centres undefined) returned HNF4A DNA FP -0.2, LANA-H2A inh 1.6, A1 inh 0.5, UCH37 inh 2.6, Ecoli growth 0.714, B2AR ag 0.2 and Vif A3G -0.8%.
Cn1c(O)c(/C=N/N2CCOCC2)c(=O)n(-c2ccccc2)c1=S was read as HNF4A DNA FP 3.8, LANA-H2A inh 9.5, A1 inh 0.1, UCH37 inh 10.3, Ecoli growth 0.708, B2AR ag -4.2 and Vif A3G -0.7%.
For O=C(NCC(c1cccnc1)N1CCOCC1)Oc1ccccc1 (centres undefined) the results were HNF4A DNA FP -1.2, LANA-H2A inh 0.7, A1 inh 0.2, UCH37 inh 3.8, Ecoli growth 0.696, B2AR ag -3.3 and Vif A3G inconclusive.
For Cc1cccc(OP(=O)(Nc2ccc(F)cc2)Oc2cccc(C)c2)c1 the results were HNF4A DNA FP -0.6, LANA-H2A inh 5.3, A1 inh -0.7, UCH37 inh 1.6, Ecoli growth 0.672, B2AR ag 2.1 and Vif A3G -4.2%.
Screening CCCn1nc2ccccc2c1P(=O)(N1CCOCC1)N1CCOCC1 returned HNF4A DNA FP -1.3, LANA-H2A inh 11.6, A1 inh 0.6, UCH37 inh 0.7, Ecoli growth 0.678, B2AR ag 6.1 and Vif A3G 8.5%.
`COc1ccc2nc(NC(=O)CCc3nc(C4=CCN(C)CC4)no3)sc2c1` gave HNF4A DNA FP -2.9, LANA-H2A inh 3.6, A1 inh -0.1, UCH37 inh 5.2, Ecoli growth 0.713, B2AR ag 2.9 and Vif A3G 15.5%.
For N#CC(C#N)=C(N)c1cccnc1 the results were HNF4A DNA FP -0.8, LANA-H2A inh -1.1, A1 inh 0.4, UCH37 inh 3.7, Ecoli growth 0.629, B2AR ag 5.1 and Vif A3G -3.6%.
`CC(OC(=O)c1cn(C)c2ccccc12)C(=O)N1CCCC1` (centres undefined) gave HNF4A DNA FP 1.5, A1 inh 0.1, UCH37 inh 0.7, Ecoli growth 0.63, B2AR ag -7.0 and Vif A3G 2.9%.
Screening CCOc1cc2c(cc1OCC)-n1cccc1C(c1cccc(F)c1)NC2 (centres undefined) returned HNF4A DNA FP 3.6, LANA-H2A inh 1.9, A1 inh -0.2, UCH37 inh 4.1, Ecoli growth 0.677, B2AR ag -2.1 and Vif A3G 1.8%.
Screening Cc1ccc(N2C(=O)NC(=O)/C(=C\c3cccn3C(C)(C)C)C2=O)cc1 returned HNF4A DNA FP 1.9, LANA-H2A inh 1.8, A1 inh -0.4, UCH37 inh 2.9, Ecoli growth 0.68, B2AR ag 1.1 and Vif A3G 6.4%.
O=C(Nc1nc(-c2ccccc2)c(-c2ccccc2)s1)c1ccc(S(=O)(=O)N(CCCl)CCCl)cc1 was read as HNF4A DNA FP -2.5, LANA-H2A inh 2.7, A1 inh -0.4, UCH37 inh -2.9, Ecoli growth 0.706, B2AR ag 10.2 and Vif A3G -81.1%.
Cc1nc2cc(C(=O)N3CCC4(CC3)OCCO4)ccc2n1-c1ccc(Br)cc1 was read as HNF4A DNA FP -1.6, A1 inh 0.2, UCH37 inh 1.0, Ecoli growth 0.762, B2AR ag -3.5 and Vif A3G 0.3%.
Cn1c(O)c(/C=C2\N=c3ccccc3=C2CCNC(=S)NC2CC2)c(=O)n(C)c1=O was read as HNF4A DNA FP 1.9, LANA-H2A inh -3.4, A1 inh 1.1, UCH37 inh 4.8, Ecoli growth 0.655, B2AR ag 15.4 and Vif A3G 31.6%.
`Cc1cc(N)n(C2CCN(C)CC2)n1` gave HNF4A DNA FP 0.5, LANA-H2A inh -0.4, A1 inh 0.5, UCH37 inh -2.9, Ecoli growth 0.699, B2AR ag -3.1 and Vif A3G 5.7%.
For CCOc1ccc(-c2cc(C(=O)N3CCC4(CC3)OCCO4)c3ccccc3n2)cc1 the results were HNF4A DNA FP -8.9, UCH37 inh -352.1, Ecoli growth 0.673 and B2AR ag 2.6.
For Clc1ccc(N2CCN(Cc3ccccc3Cl)CC2)cc1 the results were HNF4A DNA FP -0.7, LANA-H2A inh -9.1, A1 inh -0.2, UCH37 inh 0.2, Ecoli growth 0.661, B2AR ag 1.4 and Vif A3G 2.8%.
`O=C(COc1ccc2ccccc2c1)N1CCN(Cc2ccncc2)CC1` gave HNF4A DNA FP 1.9, LANA-H2A inh 1.8, A1 inh 0.4, UCH37 inh 1.1, Ecoli growth 0.79, B2AR ag -5.7 and Vif A3G 11.6%.
For CC1=NCCc2c1[nH]c1ccccc21 the results were HNF4A DNA FP 37.1, LANA-H2A inh -5.3, A1 inh 0.0, UCH37 inh -22.4, Ecoli growth 0.772 and Vif A3G 8.9%.
For COc1ccc(CNCCc2c(C)[nH]c3ccc(OC(F)(F)F)cc23)c(OC)c1 the results were HNF4A DNA FP 0.1, LANA-H2A inh -1.5, A1 inh 0.0, B2AR ag 43.0* and Vif A3G -5.4%.
Screening CCCCCCN=C(C)c1c(O)n(Cc2ccccc2)c(=O)[nH]c1=O returned HNF4A DNA FP 0.1, LANA-H2A inh 0.2, A1 inh 0.0, UCH37 inh 2.6, Ecoli growth 0.75, B2AR ag 0.5 and Vif A3G 16.6%.
For CCCCN=Cc1c(O)n(-c2c(C)cc(C)cc2C)c(=O)[nH]c1=O the results were HNF4A DNA FP 6.2, LANA-H2A inh 0.9, A1 inh -0.9, UCH37 inh 0.7, Ecoli growth 0.711, B2AR ag 1.5 and Vif A3G 0.8%.
`FC(F)(F)c1ccc(CNCCc2ccc3c(c2)OCO3)cc1` gave HNF4A DNA FP 6.0, LANA-H2A inh -2.4, A1 inh 0.3, UCH37 inh 7.0, Ecoli growth 0.615, B2AR ag -10.3 and Vif A3G -13.4%.
O=C(Nc1ccc(F)cc1)c1c(O)c2c(n(Cc3ccccc3)c1=O)CCCC2 was read as HNF4A DNA FP 4.5, LANA-H2A inh -8.1, A1 inh 0.1, UCH37 inh 2.9, Ecoli growth 0.705, B2AR ag 3.8 and Vif A3G 4.3%.
For COc1ccc(OC)c(-n2c(N)c(C(=O)NCC3CCCO3)c3nc4ccccc4nc32)c1 (centres undefined) the results were HNF4A DNA FP 2.8, UCH37 inh -71.2, Ecoli growth 0.737, B2AR ag 4.2 and Vif A3G 3.2%.
`S=C(c1ccc(Cl)cc1)N1CCOCC1` gave HNF4A DNA FP -1.4, LANA-H2A inh 0.3, A1 inh -0.7, UCH37 inh 0.9, Ecoli growth 0.739, B2AR ag -8.7 and Vif A3G -11.0%.
For COc1ccc(CC(=O)N2C[C@H]3C[C@@H](C2)c2cccc(=O)n2C3)cc1 the results were HNF4A DNA FP -1.1, LANA-H2A inh -1.9, A1 inh 1.0, UCH37 inh 1.0, Ecoli growth 0.704 and B2AR ag 4.7.
`O=c1c2ccccc2nc(-c2ccco2)n1-c1ccc(Br)cn1` gave HNF4A DNA FP 5.1, LANA-H2A inh -2.2, A1 inh -0.6, UCH37 inh 2.1, Ecoli growth 0.684, B2AR ag 15.7 and Vif A3G 6.8%.
Screening CC(=NCCO)c1c(O)n(C2CCCCC2)c(=O)[nH]c1=O returned HNF4A DNA FP -0.9, LANA-H2A inh 3.1, A1 inh 0.0, UCH37 inh 3.6, Ecoli growth 0.712, B2AR ag -7.1 and Vif A3G 0.9%.
Screening O=C(COC(=O)Cc1ccccc1)Nc1ccc(F)cc1 returned HNF4A DNA FP 2.4, LANA-H2A inh 3.6, A1 inh 0.1, UCH37 inh 6.2, Ecoli growth 0.73 and B2AR ag -4.3.
Screening CCC1CN(C)CCC1(OC(C)=O)c1ccccc1 (centres undefined) returned HNF4A DNA FP -0.1, LANA-H2A inh 10.7, A1 inh 0.3, UCH37 inh -4.3, Ecoli growth 0.68, B2AR ag 0.1 and Vif A3G -9.2%.
For CCc1ccccc1NC(=O)CN1CCN(C(=O)COc2ccccc2C#N)CC1 the results were HNF4A DNA FP -5.0, LANA-H2A inh 5.8, A1 inh 0.4, UCH37 inh 1.4, Ecoli growth 0.707, B2AR ag -3.2 and Vif A3G -7.3%.
Screening CC(=O)N1CCC2(CC1)CC(=O)c1cc(OCC(=O)N3CCC4(CC3)OCCO4)ccc1O2 returned HNF4A DNA FP -3.2, LANA-H2A inh 5.5, A1 inh 0.0, UCH37 inh inactive, Ecoli growth 0.692 and B2AR ag 10.3.
`CC1C(c2cccs2)=[N+]([O-])C(C)(C(=O)c2ccc(F)cc2)N1O` (centres undefined) gave HNF4A DNA FP -0.1, LANA-H2A inh -2.0, A1 inh 0.2, UCH37 inh 2.9, Ecoli growth 0.675 and B2AR ag 7.3.

Source: PubChem BioAssay (several laboratories)
